UUG fidelity: alters start codon recognition fidelity in yeast; S. cerevisiae UUG-firefly luciferase reporter, luminescence/redox ratio; activity score, % at 18.7 µM; 350,000 tested, 0.13% active;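 active = replicate mean at a twofold rise or more, about +100% in these data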;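 also: firefly luciferase made from a UUG start codon reports start codon fidelity; reporter light over untreated wells divided by growth signal over untreated wells; some hits fall short of that in this replicate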
eIF4H FP inh: inhibitors of RNA binding by human eIF4H. Q15056. eIF4H fluorescence polarization binding assay. inhibition, % at 35 µM. 290,000 tested, 0.94% active;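 active = 50% or more with normal probe brightness, or confirmed in later tests; inconclusive = above 50% with abnormal brightness, or retests that disagree; inactive = below 50% or failed in later tests; about a fifth of its hits are not listed in these tables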;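 also: calls also rest on retests at 20 µM and on dose response follow-up; 0% = protein and probe with vehicle and 100% = probe without protein; strong numbers were not always called active; many hits fall short of the cut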
MT1-MMP act inh: inhibitors of human MT1-MMP activation; P50281; HT1080 RFP-PRO-GFP cells, GFP/RFP ratio fluorescence, overnight; percent of plate control window, DMSO zero; GFP/RFP ratio change, % at 20 µM; 360,000 tested, 0.061% active;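 active = GFP/RFP ratio change of at least 30% with cell ATP level not reduced by more than half and red fluorescence within 50% of control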; also: strong numbers were not always called active
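Compound: 20 µM single dose, 1% DMSO / System: HT1080 RFP-PRO-GFP cells / Controls: DMSO and RFP-L50D-GFP cell wells / Read-out basis: GFP/RFP fluorescence ratio / Schedule: overnight compound exposure at 37 °C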
Env fusion inh: inhibitors of HIV Env-mediated cell fusion; 360,000 tested, 1.1% active; AID 651610; HeLa-JRFL Env/CEM21 cell fusion, luciferase; inhibition, % at 12.3 µM;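 active = mean replicate inhibition score of at least 50 and every replicate individually at or above 50; inconclusive = only one of the two criteria met; inactive = mean below 50 and not all replicates reaching 50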;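 also: 0% = plate neutral controls and 100% = maraviroc near 300 nM; one replicate is shown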
CSC inhib: blocks cancer stem cells; inhibition, % at 7.5 µM; 300,000 tested, 1.1% active; cancer stem cell-like cells viability, luminescence;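 active = mean at 75% or more and at least half the replicates too; inconclusive = mean and replicates disagree; tested in HMLE shEcad cells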;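 also: 0% = median of negative and 100% = median of positive control wells; the first replicate is given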
PABP FP inh: PABP-poly(A) binding inhibition; P11940; 290,000 tested, 1% active; PABP-poly(A) RNA binding, fluorescence polarization; inhibition, % at 35 µM;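 active = 50% or more with normal probe brightness, or confirmed in later tests; inconclusive = above 50% with abnormal brightness, or retests that disagree; inactive = below 50% or failed in later tests; about a fifth of its hits are not listed in these tables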;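 also: calls also rest on retests at 20 µM and on dose response follow-up; controls were probe without protein and protein plus probe with vehicle; some compounds called inactive have numbers as strong as hits; many hits fall short of the cut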
Rce1 inh: yeast Ras-converting enzyme inhibition; yeast membranes, quenched prenylated peptide cleavage fluorescence; calls only; 290,000 tested, 0.27% active; AID 2563;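 active = fall in fluorescence gain of 50% or more versus controls, with final raw signal at or below 3038400; inconclusive = same 50% fall but final raw signal above 3038400; inactive = fall in fluorescence gain under 50%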;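 also: plate controls were neutral control wells for no effect and wells lacking membranes for full effect; tested at 10 µM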
Target sequence (Q03530 whole entry, looked up): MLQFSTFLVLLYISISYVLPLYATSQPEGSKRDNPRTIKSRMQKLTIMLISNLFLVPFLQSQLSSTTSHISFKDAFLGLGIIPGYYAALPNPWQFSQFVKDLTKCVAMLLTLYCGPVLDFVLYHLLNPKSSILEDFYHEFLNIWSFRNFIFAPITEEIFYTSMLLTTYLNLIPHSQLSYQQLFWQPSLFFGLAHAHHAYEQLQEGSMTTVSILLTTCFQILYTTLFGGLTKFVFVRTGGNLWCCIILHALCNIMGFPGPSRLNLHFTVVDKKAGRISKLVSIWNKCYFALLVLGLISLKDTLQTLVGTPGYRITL
eIF4H FP inh retest: recorded beside eIF4H FP inh, whose call it bears; inhibition, %; compound at 20 µM; confirmation average;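 mean of two retest wells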
PABP FP inh retest: second read-out of PABP FP inh, no call of its own (marks repeat the call); inhibition, %; compound at 20 µM; confirmation repeats;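 mean of two retest wells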
MT1-MMP act inh RFP: also measured in MT1-MMP act inh; calls as there; RFP signal change, %; measured here: RFP expression control read;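 0 = vehicle wells; hits needed this value within 50% of zero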
* marks the source's active call; other numbers are inactive results; i = inactive; u = inconclusive; x = not tested or not shown; & = joins results of further samples; [ ] = remark or other dose. The list is partial; rates above refer to the full screens.

The first two entries, ahead of the listing:
SMILES	UUG fidelity	eIF4H FP inh	MT1-MMP act inh	MT1-MMP act inh RFP	Env fusion inh	CSC inhib	PABP FP inh	Rce1 inh	others
Cc1cc(NC(=O)Nc2ccccc2)n(C(C)(C)C)n1	-11	-8	4	8	-6	8	-8	i
Cc1cccnc1NC(=O)c1ccc2c(c1)OCO2	2	x	4	3	-19	x	x	i

Main list, from the start:
SMILES	UUG fidelity	eIF4H FP inh	MT1-MMP act inh	MT1-MMP act inh RFP	Env fusion inh	CSC inhib	PABP FP inh	Rce1 inh	others
Cc1cc(NC(=O)Nc2ccccc2)n(C(C)(C)C)n1	-11	-8	4	8	-6	8	-8	i
Cc1cccnc1NC(=O)c1ccc2c(c1)OCO2	2	x	4	3	-19	x	x	i
O=C(COC(=O)COc1ccccc1F)NCCc1ccc(F)cc1	-17	x	0	2	-6	x	x	x
COc1cc2c(cc1NC(=O)c1ccco1)CCCC2	-13	3	-3	-3	x	-5	-9	i
COc1ccccc1-n1c(=O)[nH]c2c(C(N)=O)nc(CC(C)C)nc21	-17	-11	5	2	0	2	-2	i
O=C(CN1C(=O)NC2(CCCCC2)C1=O)NCC(=O)Nc1ccc(F)c(F)c1	-11	x	-2	1	-23	-5	x	i
COc1cc(Cl)ccc1OCc1cc(C(=O)NCc2cc(C(C)C)no2)no1	-3	-11	-2	-4	-42	-9	-3	i
Cc1[nH]c2ccccc2c1/C=N/n1cnnc1	-14	-10	6	3	x	-17	-1	i
CCN1C(Nc2ccccc2)=NC[C@@H]1Cc1ccccc1	-11	-5	3	0	13	2	1	i
COc1ccc(-c2c(-c3cc(OC)cc(OC)c3)sc3ccc(OC)cc23)cc1	-13	x	1	0	12	20	x	x
Cc1ccc(C(=O)Nc2cccc(Oc3ccccc3)c2)o1	-3	0	1	-7	x	-8	1	i
Cc1cccc(NC(=O)c2ccc(OC3CSC3)cc2)c1	-10	-8	11	0	-144	12	-2	i
O=C(c1cnn2c(C(F)(F)F)cc(-c3ccc(F)cc3)nc12)N1CCc2ccccc2C1	-2	-4	-10	-9	16	1	-8	i
O=C1CCC(C(=O)N2CCSCC2)CN1CCc1cccc(F)c1 (stereo unspecified)	5	-7	5	2	-23	-13	4	i
O=C(NCC1CCCO1)c1cc2c([nH]c3ccccc32)c(-c2ccc(F)cc2)n1 (stereo unspecified)	0	-1	-15	-24	x	0	-4	x
CCOc1ccc(C(=O)N2CCc3ccccc32)cc1OCC	5	-11	3	7	-236	-21	10	i
O=C(COc1ccc2ccccc2c1)Nc1ccc(S(=O)(=O)N2CCCCCC2)cc1	-2	-1	-4	-11	x	-1	-4	i
CCN(CC)S(=O)(=O)c1ccc(N2CCCC2)c(NC(=O)c2ccc([N+](=O)[O-])o2)c1	0	x	4	-4	-88	27	x	x
Cc1cc(C)n(-c2nc(NCCCN(C)C)c3c4c(sc3n2)COC(C)(C)C4)n1	-8	2	-5	-2	11	13	-4	i
O=C(Oc1c(CN2CCOCC2)cc(Cl)c2cccnc12)c1cccs1	-65	17	1	3	15	49	-4	i
COc1ccc(-c2csc3ncnc(N4CCN(S(=O)(=O)c5ccccc5C#N)CC4)c23)cc1	-8	-11	-10	-4	13	1	-12	i
CNC(=O)NC(=O)C(C)OC(=O)c1oc2ccccc2c1CSc1ccc(Cl)cc1 (stereo unspecified)	x	-5	-1	-8	-14	104*	2	x
Cn1c(C(O)C(O)c2ccccc2)nc2ccccc21 (stereo unspecified)	x	-6	-4	-2	-13	-5	1	i
Cc1cccc(NC(=O)CS(=O)(=O)c2cn(C)c3ccccc23)c1C	-17	-3	-5	-5	-58	-12	3	i
O=C(OCc1ccccn1)c1ccc(COc2ccc3ccccc3c2)o1	-19	-3	4	1	-136	7	2	i
CCCCN(C)c1c(C)nc2ccc(C(=O)NCCCn3ccnc3)cn12	-22	x	-2	3	-1	x	x	x
CC(=O)N1c2ccc(C)cc2Sc2c1ccc1ccccc21	-27	x	-11	-7	-5	x	x	x
COc1ccc(NC(C)=O)cc1S(=O)(=O)N1CCN(Cc2cccs2)CC1	-18	x	10	3	x	-10	x	x
O=C1c2ccccc2OCOc2ccccc21	-27	-8	0	1	x	5	-9	i
O=[N+]([O-])c1ccc2nc(-c3ccccc3[N+](=O)[O-])[nH]c2c1	x	5	3	5	-6	-8	-1	x
Cc1ccc(OCC(=O)N(C)CC(=O)N(CC(C)C)c2c(N)n(CC(C)C)c(=O)[nH]c2=O)c(C)c1	-6	x	6	-7	4	-16	x	i
C=CC[N+](C)(C)CC(=O)OCc1ccccc1	1	-9	5	5	-8	-8	2	i
CCCCOc1ccc(CSc2nc(C)[nH]c2[N+](=O)[O-])cc1[N+](=O)[O-]	-17	12	-1	-30	11	41	-1	i
O=C(CC(NC(=O)c1ccccc1)c1ccccc1)Nc1cccc2ccccc12 (stereo unspecified)	-3	-4	-5	1	-25	x	4	i
Clc1ccc(-c2ccn[nH]2)cc1	x	0	-2	3	-21	-7	3	i
CCCN1C(=O)/C(=C\C=C2/Sc3ccccc3N2CC)SC1=S	x	96	x	x	x	x	112	i	eIF4H FP inh retest=-5;PABP FP inh retest=1
O=C(c1cc2cc(Cl)ccc2[nH]1)N1CCN(Cc2ccc3c(c2)OCO3)CC1	-10	9	-2	-1	2	-9	7	i
O=C1NC2(CCCCC2)CO1	-13	6	4	0	-20	22	0	i
CNC(=S)NNC(=O)c1ccc(=O)n(Cc2cccc(C(F)(F)F)c2)c1	-5	-7	4	0	9	10	-2	i
COC(=O)Nc1ccc(S(=O)(=O)N2CCN(C)CC2)cc1	-15	14	5	4	x	x	0	i
CN(C(=O)COC(=O)COc1ccccc1Cc1ccccc1)c1ccccc1	-2	x	3	3	x	-11	x	i
Cc1ccc2c(c1)C1C[N+](C)(CC(=O)c3ccccc3)CCC1N2C(=O)c1ccccc1Cl (stereo unspecified)	13	x	-1	1	-32	-11	x	x
Nc1c(C(=O)O)cnn1-c1ccccc1	x	-2	-2	0	-5	-13	-4	i
COc1ccc(-c2oc(=O)c3cc(OC)c(OC)cc3c2/C=C/c2ccc(OC(C)=O)cc2)cc1	-2	x	1	-7	-35	x	x	x
O=C(COC(=O)C1(c2ccc(F)cc2)CCCC1)N1CCc2ccccc21	-27	-10	-4	-15	-81	39	5	i
Cc1cc(Br)ccc1OCCCCNC(C)(C)C	-12	-6	4	0	x	-14	-2	i
O=C1c2ccccc2N2C(=O)c3ccccc3C2N1Cc1ccccc1 (stereo unspecified)	8	9	2	0	4	x	8	i
CCCSc1nc(N)c2c3c(sc2n1)CN(C)CC3	-20	1	1	-2	x	x	13	i
Cc1cccc2c(=O)c(C(=O)N3CCCCCC3)c[nH]c12	-7	2	3	3	-20	-7	-9	i
O=C(c1cnn(-c2nc3ccccc3s2)c1)c1ccccc1O	-16	0	-8	-1	x	-14	-6	i
COc1ccccc1N1CCN(C(=O)CSc2nnc(-c3ccoc3C)o2)CC1	-7	-1	3	0	x	0	3	i
CCOC(=O)C1CCCCN1C(=O)c1cc2ccc(OC)cc2c2cc(OC)c(OC)cc12 (stereo unspecified)	-23	x	0	1	-5	x	x	x
CC(OC(=O)Cc1coc2cc3c(cc12)CCC3)C(=O)NC(N)=O (stereo unspecified)	x	-4	2	0	4	-5	-3	i
CCOC(=O)c1c(-c2ccc(Cl)cc2)csc1NC(=O)CNCc1ccco1	x	-4	-6	-3	u	77*	0	i
N#Cc1ccccc1NC(=O)CN1CCOCC1	-19	-1	-2	-2	-7	-7	3	i
CCOC(=O)C(C)S(=O)(=O)c1ccc(C(F)(F)F)cn1 (stereo unspecified)	x	-14	-3	1	x	-13	-4	i
Cc1cc(S(=O)(=O)N2CCCC(N3CCOCC3)C2)c(C)cc1Cl (stereo unspecified)	-26	-3	9	-8	-32	2	-6	i
CC(C)=CCc1c(O)cc2oc3c(CC=C(C)C)c(O)c(O)c(CC=C(C)C)c3c(=O)c2c1O	-12	58*	-10	-37	x	3	21	i	eIF4H FP inh retest=72*;PABP FP inh retest=26
CCN(CC)S(=O)(=O)c1ccc(Cl)c(C(=O)Nc2cc(C)nn2-c2ccccc2C(F)(F)F)c1	x	2	x	x	x	-5	6	i
O=C(NCCc1cccc(Cl)c1)c1ccc2c(c1)OCO2	-40	-10	2	-2	-134	10	-4	i
The list goes on.
SMILES	UUG fidelity	eIF4H FP inh	MT1-MMP act inh	MT1-MMP act inh RFP	Env fusion inh	CSC inhib	PABP FP inh	Rce1 inh	others
O=C(COC(=O)C1CCN(S(=O)(=O)c2cccs2)CC1)c1ccc2c(c1)OCCO2	-10	-11	-9	-2	x	-7	2	i
CCOc1ccc(NS(=O)(=O)c2cc(C(=O)NCCCN3CCCC3=O)ccc2C)cc1	19	x	0	0	-4	0	x	x
Clc1cccc(Cl)c1Cn1cc(Br)cn1	-17	0	0	3	x	-8	3	i
COc1ccc(S(=O)(=O)N(CC(=O)NC2CC2)Cc2ccccc2)cc1	-7	-3	1	3	9	8	-9	i
S=c1[nH]nc(COc2ccccc2)n1/N=C/c1ccc(Br)s1	-3	-3	4	-2	-49	19	-5	i
CCCC(=O)C1=C(O)C(C(=O)OC)C(C)(C)CC1=NCCCCCC(=O)O (stereo unspecified)	-4	-2	2	-2	-19	-9	-6	i
CC(Oc1ccccc1F)C(=O)NC1CCS(=O)(=O)C1 (stereo unspecified)	-27	-2	1	2	-10	7	-12	i
CCCC(=O)NNC(=O)c1c(O)c2ccccc2[nH]c1=O	10	-11	4	2	-16	-10	-14	i
O=C(NC1CC1)C1=C[C@@H](c2ccc(C(F)(F)F)cc2)C[C@@H](OCCCCO)O1	3	x	3	2	0	-10	x	i
COc1ccc(CCNc2nc(-c3cccnc3)cs2)cc1OC	-31	-2	3	-9	27	-2	-3	i
O=C(NCCN1CCCCCC1)C1CCC(CNS(=O)(=O)c2cccc3cccnc23)CC1 (stereo unspecified)	1	9	-3	0	-51	-10	-29	i
O=C(NCc1ccccc1)C(c1ccc(F)cc1)N(Cc1ccco1)C(=O)c1ccccn1 (stereo unspecified)	-4	-1	0	-10	-174	x	-3	x
N#Cc1ccc(C(=O)CSc2n[nH]c(=O)n2Cc2ccco2)cc1	x	0	0	1	-9	-2	-2	i
CC(C)NC(=O)COc1ccc(Cl)cc1Cl	x	-4	-3	-7	x	-14	-4	i
Cc1ccc(OCCSc2cc(C)nc(N)n2)cc1	-18	-2	5	2	x	-3	2	i
COC(=O)CCC(=O)N1CCCC(CO)(Cc2ccccc2)C1 (stereo unspecified)	-9	-8	0	5	-17	-8	-9	i
COc1ccc(NC(=O)CN2C(=O)CSC(C)C2=O)cc1 (stereo unspecified)	-11	8	3	-2	6	-9	2	i
CCN(CC)c1ccc(/C=N/Nc2nc(C)cc(C)n2)cc1	-32	-9	1	-9	5	3	5	i
COc1ccccc1NC(=O)NNC(=O)COc1ccc2ccccc2c1	-16	-16	5	6	1	-12	-9	i
COc1ccc2c(c1O)-c1ccccc1CCN(C)C2	-24	2	0	4	x	10	-5	i
O=C(NCC1CCCO1)c1ccc(Cl)c(S(=O)(=O)N2CCCCC2)c1 (stereo unspecified)	7	4	1	-9	5	-8	12	i
O=C(NCc1ccccc1)C1=C[C@H](c2coc3ccccc3c2=O)C[C@H](OCc2ccc(CO)cc2)O1	14&-1	-11	-1	-2	6[16.7 µM]	9	3	i

Compound activity from PubChem.
